AID923 – qHTS Assay for Allosteric/Competitive Inhibitors of Caspase-1: Spectroscopic Profiling in AFC Spectral Region; 75,000 compounds, 1.1% hits; Potency, µM (doses to about 57.5 µM), inactives show top-dose fluorescence increase, most hits filed as activators; compound fluorescence, AFC spectral region (405/520 nm); almost no hit is shown here; active = well fitted activation curve with a large enough effect; inconclusive = small, poorly fitted or top-dose-only effect;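 note: potency is the fitted concentration of half-maximal effect; 0% is about no effect; scaled to a free AFC standard on each plate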
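Baseline compound fluorescence (AFC region, 405 nm ex/520 nm em) taken from the intercept of kinetic reads with 50 nM caspase-1 and 5 uM Ac-WEHD-AFC; normalized to an on-plate AFC standard curve; compounds titrated up to 57 uM.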
A488 fluor – qHTS Assay for Spectroscopic Profiling in A488 Spectral Region. compound autofluorescence, A488 spectral region, dye equivalency; active compounds read high. max dye equivalency, M. AID 591, 2007. 59,000 compounds, 0.1% hits; active = above 10 nM dye equivalent; inconclusive = 1 to 10 nM; inactive = 1 nM or less; about half of its hits are not listed in these tables;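 note: highest value over a series up to 38 µM; compound alone in buffer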
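Readout is A488 dye-equivalent concentration, calibrated by a per-plate six-point Alexa 488 series. Compounds in 100 mM Tris buffer pH 8.0 were incubated 15 min at room temperature. Plates were imaged using 480 nm excitation/540 nm emission filters.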
Resorufin autofl – qHTS Assay for Spectroscopic Profiling in Resorufin Spectral Region; Compound fluorescence, resorufin region 547/598 nm, buffer; active compounds read high; max dye-equivalent concentration, M; 59,000 compounds, 0.04% hits; active = above 10 nM dye equivalent; inconclusive = 1 to 10 nM; inactive = 1 nM or less; a few of its hits are not listed in these tables; note: highest value over a series up to 38 µM
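Dye-equivalent concentration values derive from comparing each well's 547/598 nm fluorescence against resorufin standards included on every plate. Incubation was 15 min at room temperature in 100 mM Tris, pH 8.0.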
TSHR agonist – qHTS Assay for Agonists of the Thyroid Stimulating Hormone Receptor; Thyrotropin receptor (Homo sapiens), P16473; HEK293-CNG-TSHR cells (CNG channel as cAMP sensor), membrane potential dye, cAMP; Potency, µM (series often up to 57.1 µM), for the others: top-dose activation, usual class: activators; 73,000 compounds, 0.48% hits; AID 926, 2007; active = well fitted activation curve of enough size with the parental cells flat; inconclusive = any curve in the parental cells; inactive = parental cells flat and receptor cells flat or falling; note: potency is the fitted concentration of half-maximal effect; % of control where 0% means no effect; weak receptor curves with flat parental cells got no call and are not listed
Target sequence (P16473 whole entry, looked up): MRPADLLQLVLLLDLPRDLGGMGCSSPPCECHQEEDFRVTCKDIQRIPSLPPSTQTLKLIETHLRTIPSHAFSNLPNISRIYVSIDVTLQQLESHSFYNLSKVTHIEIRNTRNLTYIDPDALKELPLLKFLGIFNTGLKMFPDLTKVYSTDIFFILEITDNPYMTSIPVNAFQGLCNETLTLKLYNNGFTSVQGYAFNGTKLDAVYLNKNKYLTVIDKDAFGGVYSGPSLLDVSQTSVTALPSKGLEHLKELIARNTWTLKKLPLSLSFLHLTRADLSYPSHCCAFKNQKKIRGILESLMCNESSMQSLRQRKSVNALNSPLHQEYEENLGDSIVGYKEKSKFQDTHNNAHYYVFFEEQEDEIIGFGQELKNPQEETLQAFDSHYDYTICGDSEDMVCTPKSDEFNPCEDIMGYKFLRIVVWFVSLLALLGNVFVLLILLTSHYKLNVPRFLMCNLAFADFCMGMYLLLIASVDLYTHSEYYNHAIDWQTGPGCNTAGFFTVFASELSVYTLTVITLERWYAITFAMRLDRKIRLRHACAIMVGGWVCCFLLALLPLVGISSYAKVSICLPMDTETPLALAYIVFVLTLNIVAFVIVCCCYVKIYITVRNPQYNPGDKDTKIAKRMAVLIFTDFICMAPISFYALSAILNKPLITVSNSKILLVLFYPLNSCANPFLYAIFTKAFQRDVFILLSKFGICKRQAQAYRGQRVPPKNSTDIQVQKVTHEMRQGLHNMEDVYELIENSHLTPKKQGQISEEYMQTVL
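cAMP rise detected as CNG-channel membrane depolarization by fluorescent dye (emission 590 nm), 30 min after compound, following 60 min dye loading containing 100 uM RO 20-1724 at room temperature. Cells: TSHR/CNG HEK 293, with parental CNG HEK 293 as control.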
A647 autofl – qHTS Assay for Spectroscopic Profiling in A647 Spectral Region; max dye-equivalent concentration, M; 59,000 tested, under 10 active; Compound fluorescence, A647 channel (570/671 nm), Tris buffer; AID 592, 2007; active means above 1 µM dye equivalent; inconclusive means 0.1 to 1 µM; inactive means 0.1 µM or less;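 note: values scaled relative to a standard on each plate; highest value over a series up to 38 µM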
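Fluorescence read (570 nm ex, 671 nm em) after 15 min RT incubation of compounds in 100 mM Tris buffer, pH 8.0; values expressed as dye-equivalent concentration against a six-point A647 standard series on each plate.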
An asterisk follows results filed as active; i = inactive; ? = inconclusive; [ ] = another dose, or the depositor's remark. Some of the compounds tested; rates above refer to the full screens.

SMILES	AID923	A488 fluor	Resorufin autofl	TSHR agonist	A647 autofl
CC(=O)c1ccc2c(c1)N(CCCN(C)C)c1ccccc1S2	-0.4%[25.7 µM]	i	i	?	3.4e-09

High-throughput results (PubChem BioAssay)
